VDR inh = inhibitors of human vitamin D receptor; VDR-SRC2-3 peptide fluorescence polarization, 2 h; actives 0.93% (n = 400,000); Potency, µM, without a hit: max response, negative = inhibition, usual class: inhibitors; active = well fitted inhibition curve with a large enough effect; inconclusive = small, poorly fitted or top-dose-only effect, or another doubt; inactive = no such curve, though single readings can be large or run the other way; note: series mostly up to about 120 µM
Target sequence (P11473 whole entry, looked up): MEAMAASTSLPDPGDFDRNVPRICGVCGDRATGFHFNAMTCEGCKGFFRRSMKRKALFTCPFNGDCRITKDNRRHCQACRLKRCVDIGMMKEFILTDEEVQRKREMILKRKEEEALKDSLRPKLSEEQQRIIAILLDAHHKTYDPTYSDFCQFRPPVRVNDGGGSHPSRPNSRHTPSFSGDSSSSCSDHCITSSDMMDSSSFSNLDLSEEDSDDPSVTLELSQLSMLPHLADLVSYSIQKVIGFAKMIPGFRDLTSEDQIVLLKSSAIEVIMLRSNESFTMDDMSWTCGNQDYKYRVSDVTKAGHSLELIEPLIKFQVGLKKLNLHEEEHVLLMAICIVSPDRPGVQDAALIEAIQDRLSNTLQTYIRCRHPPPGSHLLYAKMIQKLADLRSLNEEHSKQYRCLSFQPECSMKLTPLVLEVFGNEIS
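Reagent solutions, kept cold and dark, are dispensed first; compounds are then pinned in at 23 nl, plates briefly spun, and incubated 2 h at ambient temperature. Inhibition of VDR–SRC2-3 peptide binding is read by fluorescence polarization.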
* = called active by the depositor; ? = inconclusive; & = joins results of further samples. % is set by controls: 0 for no effect and ±100 for the full control effect; potency is the fitted concentration of half-maximal effect. Not all compounds are listed; rates above refer to the full screens.

SMILES	VDR inh
Oc1cc(O)cc(-c2cc3ccc(O)cc3o2)c1	2%
O=[N+]([O-])c1ccccc1NCCNS(=O)(=O)c1ccc(Cl)cc1	-9%
CCOC(=O)c1c(CSc2ccccc2)n(C)c2cc(Br)c(O)c(CN(C)C)c12	20%
CN(C)C(=O)C1Cc2ccccc2CN1S(=O)(=O)c1ccc(F)cc1 (configuration not stated)	0%
COc1cccc(N2CC(C(=O)Nc3nnc(SCC(=O)NC4CCCC4)s3)CC2=O)c1 (configuration not stated)	3%
CNS(=O)(=O)c1cccc(C(=O)OCC(=O)C23CC4CC(CC(C4)C2)C3)c1	0%
Cc1cc(Br)c(NC(=O)COC(=O)C2CCCCC2)c(Br)c1	12%
O=C(/C=C/c1ccccc1)OCCCCN=C1NS(=O)(=O)c2ccccc21	-1%
CCCCCCCCCCCCCCCC(=O)NCC(=O)O	-2%
O=C(CSc1n[nH]c(-c2ccccc2O)n1)N1CCOCC1	11%
COc1cc(Br)cc(C(c2c(C)n(C)n(-c3ccccc3)c2=O)c2c(C)n(C)n(-c3ccccc3)c2=O)c1O	3%
CC1CCCC(NC(=O)CNC(=O)c2cccs2)C1C (configuration not stated)	-6%
CCn1c(SCC(=O)Nc2ccc3c(c2)OCCO3)nnc1-c1c[nH]c2ccccc12	-17%
Cc1cccc(N2CCN(C(=O)CCCn3ncn4c(cc5occc54)c3=O)CC2)c1C	13%
COc1ccc(CCN2C(=O)CSC2c2ccc(OC)c(OC)c2)cc1OC (configuration not stated)	0%
Nc1nc(SCC(=O)OCc2ccccc2)[nH]c(=O)c1NC(=O)c1ccco1	-2%
CC(=O)c1ccc(N(C(=O)CS(=O)CC(=O)Nc2ccc(F)cc2)C(C(=O)NC2CCCCC2)c2cccs2)cc1 (configuration not stated)	28%
O=C(c1ccc(C(F)(F)F)cc1)N1CCC(c2noc(-c3ccc(S(=O)(=O)N4CCCC4)cc3)n2)CC1	3%
COc1cccc(/C=C2\CCC(C3CCCC3)C2=O)c1 (configuration not stated)	-1%
Nn1c(SCc2ccccc2F)nnc1-c1cccnc1	?
Nc1nnc(SCC(=O)Nc2cc(C(F)(F)F)ccc2N2CCOCC2)s1	2%
COc1cc(C=C2C(=O)OC(C)(C)OC2=O)cc(Cl)c1OCC(=O)Nc1ccccc1	6%
O=S1(=O)c2ccccc2C(CCO)N1Cc1ccccc1 (configuration not stated)	-6%&-2%
Cc1nn(Cc2ccccc2)c(C)c1C(=O)NCCCN1CCCC1=O	17%
CN(C)c1ccc(/C=N/N2C(=S)SC(C)(C)C2N(O)C(=O)Nc2ccc([N+](=O)[O-])cc2)cc1 (configuration not stated)	-22%
CCOC(=O)CSc1nc2ccccc2c(=O)n1CC1CCC(C(=O)NCc2ccco2)CC1 (configuration not stated)	16%
Cc1cc(C)c(NC(=O)C2CCN(c3cnccn3)CC2)c(C)c1	2%
CCOC(=O)c1sc(-c2ccc(Cl)cc2)nc1O	10%
Cc1cccc(N2CC(C)Cn3c2nc2c3c(=O)[nH]c(=O)n2C)c1 (configuration not stated)	-4%
CCN(c1cccc(C)c1)S(=O)(=O)c1cn(CC(=O)OC)c2ccc([N+](=O)[O-])cc12	-5%

Molecules listed so far with a CF3 group:
SMILES	VDR inh
O=C(c1ccc(C(F)(F)F)cc1)N1CCC(c2noc(-c3ccc(S(=O)(=O)N4CCCC4)cc3)n2)CC1	3%
Nc1nnc(SCC(=O)Nc2cc(C(F)(F)F)ccc2N2CCOCC2)s1	2%

The list continues.
SMILES	VDR inh
CC(C)NC(=O)CN1C(=O)C(C)(C)Oc2ccc(C(=O)NC3CCCCC3)cc21	20%
CC(=O)Nc1nc(C)c(Oc2ccc(Cl)cc2)c(=O)[nH]1	6%
N#Cc1ccc(CSc2nnc(-c3cccs3)n2-c2ccccc2)cc1	1%
COC(=O)c1ccc(CNC(=O)Cn2cnc3c(NCc4ccccc4)ncnc32)cc1	-29%
COc1ccc(S(=O)(=O)N2CCCC2)c(Cl)c1Cl	15%
COc1ccc(-c2sc3cc4c(cc3c2-c2ccc(OCCN3CCOCC3)cc2)OCO4)cc1	-3%
COCCNC(=O)c1cc2nc(-c3ccc(F)cc3)cc(C(F)(F)F)n2n1	0%
Cn1c(=O)cc(SCC(=O)N2CCN(c3ccccc3F)CC2)c2ccc(Cl)cc21	-9%
CC(=O)Nc1c(Cl)cc2c(c1Cl)Cc1ccccc1-2	-6%
O=C(COc1ccccc1)NC1CC(=O)N(c2ccc3c(c2)OCCO3)C1 (configuration not stated)	7%
Cc1c(Cl)cccc1NC(=O)Cn1c(=O)n(Cc2ccco2)c(=O)c2oc3ccccc3c21	12%
COc1cccc2[nH]c(C(=O)NCC3CCCO3)cc12 (configuration not stated)	6%
CC(C)c1ccc(C2CC(=O)N3CN(C4CCCCC4)CSC3=C2C#N)cc1 (configuration not stated)	14µM*
Cc1ccc(-n2c(N)c(C(=O)N3CCOCC3)sc2=S)cc1	89µM*
CC(C)C(NC(=O)c1ccccc1)C(=O)N/N=C\c1ccco1 (configuration not stated)	-17%
COC(=O)c1ccc(SCC(=O)N2CCC(C)CC2)c([N+](=O)[O-])c1	-11%
CCOC(=O)c1c(C)c(-c2ccccc2)n(CC(=O)NCCc2cccc(C)c2)c1C	0%
Cc1cc2oc(C(=O)NCCc3ccc(S(N)(=O)=O)cc3)c(C)c2cc1C	2%
COc1ccc(N/C(=N\c2nc(C)cc(C)n2)NC(C)=O)cc1OC	-3%
c1ccc2c(c1)nc1n2CCC1	8%
CCOC(=O)c1cc[n+](CC(=O)c2ccc(F)cc2)cc1	-2%
Cc1cc(OCc2ccc(C(=O)NN=C3CCCC3)cc2)ccc1Cl	10%
CC(C)(C)c1cc(NC(=O)c2c(F)cccc2Cl)n(-c2ccccc2)n1	-8%
COc1ccc(/C=N/Nc2ccc(C(=O)O)cc2)cc1OC	-5%
CCN1CCN(CCCN(Cc2ccco2)C(=S)Nc2ccccc2Cl)CC1	6%
O=C(CCCOc1ccccc1)Nc1cccc(S(=O)(=O)N2CCCCC2)c1	-19%
O=C(CS(=O)c1ccc(F)cc1)N1CCOCC1 (configuration not stated)	10%
N=C(N)c1ccc2cc(OC(=O)c3ccc(N=C(N)N)cc3)ccc2c1	?
Cc1nn(-c2ccccc2)c(C)c1NC(=O)COC(=O)Cc1cccc(C(F)(F)F)c1	-20%
COc1cc2ccccc2cc1C(=O)Nc1cccc(-c2nc3cc(C)ccc3o2)c1C	-19%
CCC(=O)N1CCc2cc(S(=O)(=O)NC(C(=O)NCCc3ccccc3)C(C)C)ccc21 (configuration not stated)	-6%
CC(=O)NC1CC2CCCC(C1)N2S(=O)(=O)c1ccccc1 (configuration not stated)	-10%
O=C1C=CC2(O[C@H](c3ccccc3)[C@@H](c3ccccc3)O2)[C@H](Sc2ccccc2O)C1	10µM*
CC(C)CCOC(=O)C1[C@H]2C(=O)N(Cc3cccs3)C[C@]23C=C[C@H]1O3 (some centres not stated)	4%
CCN(C(=O)CSc1nc2ccccc2[nH]1)c1ccccc1	11%
COc1cc(C(=O)Nc2cccc(S(=O)(=O)N3CCCC3)c2)c([N+](=O)[O-])cc1OC	-8%
COc1ccccc1NC(=O)c1cnc2n(c1=O)CCS2	-12%
S=C(NCCCN1CCOCC1)Nc1cccc(-c2nnc3n2CCCCC3)c1	-3%
CN(C)/C=N/c1cc(=O)[nH]c(=O)n1Cc1ccccc1	-4%
CC(=O)NC(=S)Nc1ccc(NC(=S)NC(=O)/C=C/c2ccco2)cc1	-21%
Cc1csc(SCC(=O)NC2CCCC2)n1	5%
CCOC(=O)N1CCN(C2CCCN(C(=O)c3ccccc3SC)C2)CC1 (configuration not stated)	-4%
O=C(CSc1n[nH]c(-c2ccc(Br)cc2)n1)N1CCOCC1	7%
NC(=O)C(=O)NN=C1CCC(c2ccccc2)CC1 (configuration not stated)	15%
COc1ccc2[nH]cc(C(=O)CCl)c2c1	-10%
CCn1c(SCC(=O)NCC2CCCO2)nnc1-c1c[nH]c2ccccc12 (configuration not stated)	7%
O=C(CSc1nc(-c2ccccc2)c(-c2ccccc2)[nH]1)NCC1CCCO1 (configuration not stated)	-17%
Cc1ccc(S(=O)(=O)NCC2CCC(C(=O)N(C)Cc3ccccc3)CC2)cc1 (configuration not stated)	10%
O=C(Nc1cccnc1)c1cccc(S(=O)(=O)N2CCCCC2)c1	6%
Cc1ccc(-c2nc(S(=O)(=O)c3ccc(C)cc3)c(N3CCCCC3)o2)cc1	-1%
The results go on.
SMILES	VDR inh
O=C(Cn1ccc2ccccc21)Nc1ccc2c(c1)OCO2	-2%
Nc1ccc(C(=O)N/N=C/c2cn(Cc3ccccc3F)c3ccccc23)cc1	2%
O=C(Cc1ccc(F)cc1)NCCc1ccc(F)cc1	3%
CC1=C(C#N)CCC(=O)N1Cc1ccc(C)cc1	9%
O=C(CCSc1nc(-c2ccco2)cc(C(F)(F)F)n1)NCc1cccs1	-6%
CN(C(=O)CSc1cn(CC(=O)N2CCCCCC2)c2ccccc12)c1ccccc1	13%
CC(C)c1cc(C(=O)O)on1	3%
O=c1oc(-c2ccco2)nc2sc3c(c12)CCCC3	-3%
CCCC(=O)Nc1c(I)cc(I)c(C[C@H](CC)C(=O)O)c1I	-25%
COc1ccc(CC(=O)OCN2C(=O)c3ccccc3C2=O)cc1	0%
CCN(CC)c1cc(CS(=O)c2ccccc2)nc(-c2ccccc2)n1 (configuration not stated)	3%
COc1cc(OC)c(NC(=O)c2ccc3c(c2)N(Cc2ccc(C)cc2)CCS3)cc1Cl	-12%
O=C(NC(c1ccccc1)c1ccccc1)c1ccc(CO)cc1	-7%
O=C(/C=C/c1ccccc1)Nc1cccnc1	-16%
C[C@@H]1[C@H]2[C@@H]3CC[C@@H](C3)[C@H]2CN[C@H]1c1cn(Cc2ccccc2)c2ccccc12	-8%
CCc1nnc(SCC(=O)Nc2ccc3ccccc3c2)n1N	-26%
Cc1nc2ccc(NS(=O)(=O)c3ccc(C)c(C)c3)cc2s1	-11%
O=C(O)c1ccccc1C(=O)NCC(O)COCC1CC=CCC1 (configuration not stated)	0%
Cc1ccc(S(=O)(=O)NNC(=O)c2cnn(-c3ccc(Cl)cc3)c2C(F)(F)F)cc1	1%
COC(=O)C1=CN(c2ccc(OC)cc2)C=C(C(=O)OC)C1c1cc(OC)c(OC)cc1OC	-14%
Cc1cccc(OC(C)c2ccnc3nc(/N=C/N(C)C)nn23)c1 (configuration not stated)	-6%
CC1CCN(Cc2c(C#N)c3ccccc3n2C)CC1	-5%
O=C(/C=C\C=C/c1ccc2c(c1)OCO2)N1CCCCC1	0%
O=C(c1cc([N+](=O)[O-])ccc1N1CCN(S(=O)(=O)c2ccc(Cl)c(Cl)c2)CC1)N1CCOCC1	-19%
COc1ccccc1N1CCN(S(=O)(=O)c2c(C)ccc3nsnc23)CC1	24%
COc1ccc(OCC(O)CNC(=O)Nc2ccc(Cl)cc2)cc1 (configuration not stated)	0%
Cc1ccc(NC(=O)Cn2cc(S(=O)(=O)c3ccccc3)c(=O)c3cc4c(cc32)OCO4)cc1	-11%
CCOc1cc(/C=N/NC(=O)CCc2n[nH]c(=O)[nH]c2=O)ccc1O	-5%
CCCCNS(=O)(=O)c1cc(-c2nn(C)c(=O)c3ccccc23)ccc1C	1%
CN1CCN(c2cc(N3CCN(C(=O)c4ccco4)CC3)c3c4c(onc24)-c2ccccc2C3=O)CC1	-21%
CCN(C(=O)c1sc2nc3n(c(=O)c2c1C)CCCCC3)c1ccccc1F	7%
CCN(CC(=O)Nc1ccccc1OC)C(=O)C1CCCC1	-12%
CN(C)c1ccc(C(CNC(=O)c2ccccc2F)c2c[nH]c3ccccc23)cc1 (configuration not stated)	-8%
COc1cc2c(cc1OC)/C(=C/C(=O)c1cccc([N+](=O)[O-])c1)NCC2	-1%
CC(CNCCCn1ccc(NC(=O)OCc2ccccc2)nc1=O)c1ccccc1 (configuration not stated)	4%
Cc1ccc(Cl)c(NC(=S)N(CCCN2CCOCC2)Cc2ccco2)c1	-15%
COc1ccc(Cl)cc1NC(=O)CN(C)C(=O)c1ccc(-n2nc(C)cc2C)cc1	-15%
CC(C)n1nnnc1SCC(=O)NC1CCCC1	-11%
O=C(CSc1nc(=O)n(CCCN2CCOCC2)c2c1CCC2)Nc1ccc([N+](=O)[O-])cc1	7%
COC(=O)[C@@H](Cc1ccccc1)NC(=O)Cn1cnc2c(SC)nc(N)nc21	-12%
CNC(=S)N(CCCn1ccnc1)Cc1c(F)cccc1Cl	-19%
COc1ccc(C2C(C#N)=C(N)Oc3c2c(-c2ccccc2)nn3-c2ccccc2)c(OC)c1OC (configuration not stated)	?
COC(=O)c1ccc(OCC(O)CN2CCN(C(=O)c3ccco3)CC2)cc1 (configuration not stated)	-19%
CC1CCCN(C(=O)CCc2nnc(-c3ccc4c(c3)OCO4)o2)C1 (configuration not stated)	-6%

Molecules shown so far that have a furan ring, fused or not, in the order listed:
SMILES	VDR inh
Oc1cc(O)cc(-c2cc3ccc(O)cc3o2)c1	2%
Cc1cccc(N2CCN(C(=O)CCCn3ncn4c(cc5occc54)c3=O)CC2)c1C	13%
Nc1nc(SCC(=O)OCc2ccccc2)[nH]c(=O)c1NC(=O)c1ccco1	-2%
CCOC(=O)CSc1nc2ccccc2c(=O)n1CC1CCC(C(=O)NCc2ccco2)CC1 (configuration not stated)	16%
Cc1c(Cl)cccc1NC(=O)Cn1c(=O)n(Cc2ccco2)c(=O)c2oc3ccccc3c21	12%
CC(C)C(NC(=O)c1ccccc1)C(=O)N/N=C\c1ccco1 (configuration not stated)	-17%
Cc1cc2oc(C(=O)NCCc3ccc(S(N)(=O)=O)cc3)c(C)c2cc1C	2%
CCN1CCN(CCCN(Cc2ccco2)C(=S)Nc2ccccc2Cl)CC1	6%
CC(=O)NC(=S)Nc1ccc(NC(=S)NC(=O)/C=C/c2ccco2)cc1	-21%
O=C(CCSc1nc(-c2ccco2)cc(C(F)(F)F)n1)NCc1cccs1	-6%
O=c1oc(-c2ccco2)nc2sc3c(c12)CCCC3	-3%
CN1CCN(c2cc(N3CCN(C(=O)c4ccco4)CC3)c3c4c(onc24)-c2ccccc2C3=O)CC1	-21%
Cc1ccc(Cl)c(NC(=S)N(CCCN2CCOCC2)Cc2ccco2)c1	-15%
COC(=O)c1ccc(OCC(O)CN2CCN(C(=O)c3ccco3)CC2)cc1 (configuration not stated)	-19%

Screening data: PubChem, National Center for Advancing Translational Sciences (NCATS)
